# GIV-Gai inh = inhibitors of GIV GBA-motif binding to rat Galpha-i3 | P08753 | 0.42% of 210,000 active | percent of control (FP), % (no concentration beside the values) | Galpha-i3/FITC-GIV peptide fluorescence polarization, 90 min; hits give low values; scaled: aluminum fluoride 0%, vehicle 100%;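 active = replicate mean at 85% of control or lower, very high polarization wells dropped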;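 also: wells of about 15 µL received 100 nL stock; the first replicate is given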
# Target sequence (P08753 whole entry, looked up): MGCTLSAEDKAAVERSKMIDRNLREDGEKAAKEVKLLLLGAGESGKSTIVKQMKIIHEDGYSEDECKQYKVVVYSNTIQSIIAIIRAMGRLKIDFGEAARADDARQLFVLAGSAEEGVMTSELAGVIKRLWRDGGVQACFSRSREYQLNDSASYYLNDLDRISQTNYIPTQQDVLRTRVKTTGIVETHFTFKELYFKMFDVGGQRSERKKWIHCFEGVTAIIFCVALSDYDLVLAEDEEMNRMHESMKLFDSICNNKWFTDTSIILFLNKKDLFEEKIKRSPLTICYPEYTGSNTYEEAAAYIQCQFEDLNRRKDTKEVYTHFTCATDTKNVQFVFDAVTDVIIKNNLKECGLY
# * marks the source's active call; other numbers are inactive results.
# The first 2 entries (preview)
smiles | GIV-Gai inh
O=C1NC(c2ccccc2)Sc2ccccc21 (centres undefined) | 111
O=C(O)c1cc(N2C(=O)/C(=C/c3ccc(-c4ccc(Br)cc4)o3)C=C2c2ccccc2)ccc1O | 119

# All compounds of this part, repeating the preview:
smiles | GIV-Gai inh
O=C1NC(c2ccccc2)Sc2ccccc21 (centres undefined) | 111
O=C(O)c1cc(N2C(=O)/C(=C/c3ccc(-c4ccc(Br)cc4)o3)C=C2c2ccccc2)ccc1O | 119
Fc1ccc2[nH]c3nc4ncc(Br)cc4nc3c2c1 | 113
Cc1cc(C(=O)N2CCC(c3cc4n(n3)CCCN(C)C4=O)CC2)c(C)o1 | 109
CC1CCN(C(=O)c2cc(CN3CCOCC3)on2)CC1 | 98
Cc1nn(-c2ccc3nnc(C)n3n2)c2c1C(c1ccc(OCC(C)C)cc1)CC(=O)N2 (centres undefined) | 100
CCOc1ccc(-n2c(SCC(=O)Nc3cc(C)on3)nc3c(c2=O)SCC3)cc1 | 124
COc1ccc(NC(=O)CN2C(=O)/C(=C3\SC(=S)N(CCC(=O)O)C3=O)c3ccccc32)cc1 | 104
CCc1ccccc1NC(=O)C1CC1(c1ccc(C)cc1)c1ccc(C)cc1 (centres undefined) | 104
CC(C)CCNC(=O)c1cccn(-c2ccc(NC(=O)c3ccccc3Cl)cc2)c1=O | 108
O=CC12c3ccccc3C(c3ccccc31)C1C(=O)N(c3ccc(Cl)cc3Cl)C(=O)C12 (centres undefined) | 109
CCCN(Cc1ccc(C(C)C)cc1)Cc1cc(=O)n2nc(CC)sc2n1 | 103
CCOC(=O)C1=CN(Cc2ccc(OC)cc2)C=C(C(=O)OCC)C1c1ccc(C(F)(F)F)cc1 | 109
N#Cc1c2c(c(NCc3ccco3)n3c1nc1ccccc13)CCC2 | 120
Cc1cc(NC(=O)c2cc3ccccc3[nH]2)ccc1-c1nc2ccccc2s1 | 99
CCN(CC)S(=O)(=O)c1ccc2c(c1)cc(C(=O)N1CCN(Cc3ccccc3)CC1)n2C | 101
Cc1ccc(C)c(C2Nc3ccc(C)cc3[C@H]3OCC[C@@H]23)c1 (some centres undefined) | 102
CCCN(C)S(=O)(=O)c1c(-c2nc(C3CC3)no2)c(C)n(CC)c1C | 106
CC1(C)CC(=O)C2=C(C1)c1c(ccc3ccccc13)NC2c1cccc(OCc2c(F)cccc2Cl)c1 (centres undefined) | 109
COc1cccc(C2NC(=O)c3c(sc4c3CCCC4)N2)c1 (centres undefined) | 102
CCCS(=O)(=O)c1c(S(=O)(=O)CCC)c2ccccn2c1C(=O)N/N=C/c1ccccc1I | 101
CCN(Cc1ccccc1)c1ccc(NC(=O)c2ccc(Cl)cc2)cc1C(=O)O | 102
COCCCNC(=O)c1c[nH]c2ccc(S(=O)(=O)N(C)c3ccc(Br)cc3)cc2c1=O | 103
O=C(CSc1nc2ccccc2c(=O)n1CCCN1CCN(c2cccc(Cl)c2)CC1)Nc1nccs1 | 112
CCc1ccc(N/C(SCc2ccccc2C)=C(/C#N)C(=O)NCc2ccc3c(c2)OCO3)cc1 | 109
CCOC(=O)C1=C(N)Oc2ccc3ccccc3c2C1c1cccc(O)c1 (centres undefined) | 107
Cc1cccc(N2CCN(C(=O)CN3C(=O)c4ccccc4C3=O)CC2)n1 | 102
Cc1ccc(Cc2nnc(-c3cc(NC(=O)Nc4ccc5c(c4)OCCO5)ccc3F)o2)cc1 | 101
O=C(Cn1nc(C(=O)Nc2ccccc2)ccc1=O)Nc1ccccc1Cl | 108
CC(=O)NCCC1CCN(C(=O)c2ccc(C)cc2)CC1 | 95
Cc1cc(-n2c(C)nc3ccccc3c2=O)ccc1NC(=O)c1cc(F)cc(F)c1 | 108
CCOc1ccc(-n2c(C)nc3cc(C(=O)NCc4ccc5c(c4)OCO5)ccc32)cc1 | 108
Cc1nc(N2CCC(C)CC2)c2c(C)c(C(=O)NCC3COc4ccccc4O3)sc2n1 (centres undefined) | 102
CC(=O)Nc1cccc(-c2nc(-c3ccc4c(c3)Sc3ccccc3C(=O)N4C3CC3)no2)c1 | 99
CCCCC(=O)Nc1ccc(Oc2nc3ccccc3n3cnnc23)cc1 | 103
O=C(CSc1nc(=O)n(Cc2ccncc2)c2c1CCC2)NCC1CCCO1 (centres undefined) | 100
COc1ccc(C(=O)N/C(=C\c2ccc3c(c2)OCO3)C(=O)Nc2ccc(C(=O)O)cc2)cc1 | 116
CCOC(=O)N1CCN(C(=O)c2ccc(NCc3ccc(F)cc3)c(S(=O)(=O)Nc3cccc(OC)c3)c2)CC1 | 115
CC12CCC(C(=O)Nc3ccc(OC(=O)C45CCC(C)(C(=O)O4)C5(C)C)cc3)(OC1=O)C2(C)C (centres undefined) | 115
Cc1[nH]nc2c1C1(C(=O)Nc3ccc(Cl)cc31)C(C#N)=C(N)O2 (centres undefined) | 116
CCCc1oc2ccc(NS(=O)(=O)c3ccc(C)cc3C)cc2c1C(=O)OCC | 110
CCOC(=O)C1=C(C)NC(C)=C(C(=O)OCC)C1c1cn(-c2ccccc2)nc1-c1ccc(F)cc1 | 102
O=c1c2c3c(sc2nc2n1CCCC2)CCCCC3 | 112
O=C(CSc1nnc2c(n1)[nH]c1ccccc12)C1CC1 | 117
CC(C)c1cc(C2CCCN2Cc2cn[nH]c2-c2ccc(F)cc2)no1 (centres undefined) | 112
COc1ccc(-c2cn3ccccc3n2)cc1F | 106
CCCS(=O)(=O)c1nc2ccc(NS(=O)(=O)c3cccc(F)c3)cc2s1 | 101
CCc1onc(C)c1C1CCCN1Cc1cn[nH]c1-c1ccc(OC)c(OC)c1 (centres undefined) | 114
COc1ccc(NS(=O)(=O)c2cc(-c3nc(C(C)(C)C)cs3)cs2)cc1Cl | 107
O=C(Cc1cccc(F)c1)Nc1nnc(SCc2nnc(-c3ccccc3)o2)s1 | 100
COCCNC(=O)NC1CCCN(c2cc(N3CCCC3)ncn2)C1 (centres undefined) | 97
CCOc1ccc(/C(O)=C2/C(=O)C(=O)N(c3ccc(C)cc3)C2(O)C(=O)OC)cc1 (centres undefined) | 105
O=C(NCc1ccc(F)cc1)c1nnc2ccc(-c3ccccc3)nn12 | 101
CCOc1ccccc1C1Nc2ccc(CC)cc2[C@H]2OCCC[C@@H]12 (some centres undefined) | 100
CCOC(=O)c1cnc2c(C)cc(C)cc2c1Nc1ccc(C(=O)OC)cc1 | 102
O=C1/C(=C/c2cccnc2)SC(=Nc2ccccc2)N1C1CCCCC1 | 109
Cn1c(SCc2nc(-c3ccccc3)no2)nc2cc(-c3ccccc3)sc2c1=O | 103
CCN(CC)C(=O)COc1ccc2c(-c3ccccc3)cc(=O)oc2c1C | 112
Cc1cccn2c(=O)cc(COc3ccc(NC(=O)Nc4cccc(Cl)c4)cc3)nc12 | 107
O=P(c1ccccc1)(c1ccccc1)c1nc(-c2ccc(Cl)cc2Cl)oc1N1CCOCC1 | 108

# The listing continues:
smiles | GIV-Gai inh
COc1cc2c(cc1OC)C1=C(c3ccccc3Br)C(=O)C(=O)N1C(C)(C)C2 | 110
CCOCCCNC(=O)c1cc2c(s1)CN(C1CC1)C2 | 109
CCC(C)C(=O)N1c2ccc(C)cc2-c2c(ssc2=S)C1(C)C (centres undefined) | 105
N#Cc1ccc(-c2nc(-c3ccc4nncn4c3)no2)cc1 | 98
Cc1cccc(NC(=O)c2sc(N3CCCC3=O)nc2C)n1 | 102
N#CC(C#N)=C(C#N)/C=C/n1c2ccccc2c2ccccc21 | 70*
CC1(C)OC(=O)N2CCc3c([nH]c4ccccc34)C21C (centres undefined) | 104
Cc1ccc(-c2noc3c(=O)n(CCC(=O)Nc4cc(Cl)ccc4C)cnc23)cc1 | 97
O=C(Cn1c2ccccc2n2c(=O)cc(-c3ccccc3)nc12)Nc1cc(F)ccc1F | 104
COC(OC)C12c3ccccc3C(c3ccccc31)C1C(=O)N(c3cccc(C)c3C)C(=O)C12 (centres undefined) | 111
COc1ccc(OC)c(CNC(=O)C2CCN(c3ncnc4c3oc3ccccc34)CC2)c1 | 106
Cc1ccc(Oc2ccc(-c3noc(-c4cnccn4)n3)cc2)cc1 | 99

# Random excerpt: four records from the list
smiles | GIV-Gai inh
Cc1ccc(Oc2ccc(-c3noc(-c4cnccn4)n3)cc2)cc1 | 99
CCC(C)C(=O)N1c2ccc(C)cc2-c2c(ssc2=S)C1(C)C (centres undefined) | 105
O=C(Cn1c2ccccc2n2c(=O)cc(-c3ccccc3)nc12)Nc1cc(F)ccc1F | 104
Cc1ccc(-c2noc3c(=O)n(CCC(=O)Nc4cc(Cl)ccc4C)cnc23)cc1 | 97

# Other records
smiles | GIV-Gai inh
COc1ccc(N2CCN(c3ncnc4sc(C(=O)NCc5ccccc5OC)c(C)c34)CC2)cc1 | 113
CCn1c(=O)oc2cc(S(=O)(=O)N3CCN(C(=O)c4cc5cc(Cl)ccc5[nH]4)CC3)ccc21 | 98
OCCN(CCO)c1nc(-c2ccccc2)nc2c1oc1ccccc12 | 106
CCCS(=O)(=O)c1c(S(=O)(=O)CCC)c2c(C(N)=O)cccn2c1C(=O)c1ccc(Br)cc1 | 104
Cc1cc(C(=O)N2CCCC2c2cc(C(C)C)on2)on1 (centres undefined) | 100
CCOc1cccc2c1OC(c1ccc(SC)cc1)N1N=C(c3ccc(C)o3)CC21 (centres undefined) | 117
CCCN1CCN(C(=O)C2CCCN(S(=O)(=O)c3cc(-c4noc(CC)n4)cs3)C2)CC1 (centres undefined) | 107
COc1ccc(C)cc1NC(=O)c1cc(S(=O)(=O)N2CCN(c3ccc(C)cc3)C(C)C2)ccc1F (centres undefined) | 105
CNC(=O)N1CCC(Oc2ccc(Cl)cc2)CC1 | 99
Cn1c(=O)c(=O)n(C)c2cc(S(=O)(=O)C3CCCCC3)c(NC(=O)c3ccccc3Cl)cc21 | 103
O=C(NC(Cc1c[nH]c2ccccc12)C(=O)O)c1ccc(C23CC4CC(CC(C4)C2)C3)cc1 (centres undefined) | 107
CC1=C(c2ccccc2)S(=O)(=O)N=C1N1CCCN(C(=O)NC(C)(C)C)CC1 | 112
CCc1cc2c(Nc3cccc(OC)c3)ncnc2s1 | 107
CCOC(=O)c1c(C)oc2ccc(N(C(=O)c3ccccc3Cl)S(=O)(=O)c3ccccc3)cc12 | 109
CC1(C)c2cc(Br)ccc2N2CCC(=O)NC21C (centres undefined) | 109
Cc1ccc(S(=O)(=O)Cc2noc(-c3ccc(Br)cc3)n2)cc1 | 104
COC1CCN(C(=O)NC(C)C)CC1 | 103
COC(=O)CN1C(c2cc(OC)c(OC)c(OC)c2)=Nc2ccc(C)cc2C1c1ccccc1 (centres undefined) | 111
CCSc1nc2ccc(NS(=O)(=O)c3ccc(F)cc3Cl)cc2s1 | 102
CCOc1ccc(-n2c(-c3ccco3)n[nH]c2=S)cc1 | 118
O=c1c2ccccc2c2nc3c(c(-c4ccccc4I)c12)c(=O)c1ccccc13 | 98
CCN(CC)c1ccc(/C=C2\C(=O)NC(=O)N(c3ccc(OC)cc3)C2=O)c(OC)c1 | 146
Cc1nnc(-c2ccc3c(c2)OCO3)o1 | 99
CCn1cnnc1C1CCCN(Cc2ccc3cc[nH]c3c2)C1 (centres undefined) | 119
CCN(CC)C(=O)c1cc(NS(=O)(=O)CC)cnc1N1CCNCC1 | 101
O=C(CN1CCCCCC1)N1c2ccccc2Sc2ccc(Cl)cc21 | 118
O=S(=O)(c1ccc2c(c1)C(=NO)c1cc(S(=O)(=O)N3CCCCC3)ccc1-2)N1CCCCC1 | 114
O=C(NCc1ccc2c(c1)CCCN2C(=O)C1CCC1)C1CCCCC1 | 101
CC(C)CCNC(=O)N1CCC2(C1)C(=O)N(C)c1ccccc12 (centres undefined) | 105
Cn1c(=O)c(C(=O)c2cccc(S(=O)(=O)O)c2)c2c3c(c(Br)ccc31)C(=O)c1ccccc1-2 | 100
Cc1nn(-c2ccc3nnc(C)n3n2)c2c1C(c1ccccc1OC(C)C)CC(=O)N2 (centres undefined) | 102
CCc1ccc(S(=O)(=O)Nc2cc3c4c(oc3c3ccccc23)CC(C)(C)CC4=O)cc1 | 107
Cc1ccc(O)c(NC(=O)CSc2nnc(-c3cc4ccccc4o3)n2Cc2ccccc2)c1 | 103
COC(=O)c1ccc2c(=O)n(-c3ccc(Cl)cc3)c(N3CCCC3)nc2c1 | 102
O=C(Nc1ccc(OCc2cc(C(=O)NCc3ccccc3)no2)cc1)c1ccccc1 | 99
CCOC(=O)C1=C(NC(=S)NC(=O)c2ccccc2)c2ccccc2CC1(CC)CC | 111
Cc1cc(N(C)C)nc(Nc2ccc(NC(=O)CC(C)(C)C)cc2)n1 | 103
Cc1ccc(Nc2cc(C)nc(N3CCN(C(=O)Nc4ccccc4)CC3)n2)cc1 | 101
Cc1nnc(-c2csc(S(=O)(=O)N3CCN(C)CC3)c2)o1 | 103
COc1ccc(-n2ncc3c(Nc4cc(Cl)ccc4OC)ncnc32)cc1 | 103
CC1CC(C)CN(CC2CCN(C(=O)Nc3ccc4c(c3)OCO4)CC2)C1 (centres undefined) | 104
CCn1nnc2c(NCc3ccco3)ncnc21 | 96
O=C(NCc1ccccn1)c1ccc2c(c1)nc1n2CCCC1 | 108
COC(=O)C(C)NC(=O)N1CCOc2ccc(COCc3ccccc3F)cc2C1 (centres undefined) | 98
CCc1ccc(S(=O)(=O)NCc2ccc3c(c2)CCN3C(=O)c2ccc(F)cc2)cc1 | 108
COC(=O)Nc1ccc(S(=O)(=O)N2CCC(C(=O)NC3CCCCC3)CC2)cc1 | 114
O=C(CCC1CCCC1)Nc1nnc(SCc2nnc(-c3ccccc3)o2)s1 | 105
CC(C)CC(=O)N1CCC2(C1)C(=O)N(C)c1ccccc12 (centres undefined) | 106
COC(=O)c1ccc2c(=O)n(Nc3nc(C)cc(C)n3)c(=S)[nH]c2c1 | 107

# Rewritten as labelled records: 3 of the compounds above
Cc1ccc(Nc2cc(C)nc(N3CCN(C(=O)Nc4ccccc4)CC3)n2)cc1
  GIV-Gai inh = 101
Cc1nnc(-c2csc(S(=O)(=O)N3CCN(C)CC3)c2)o1
  GIV-Gai inh = 103
COc1ccc(-n2ncc3c(Nc4cc(Cl)ccc4OC)ncnc32)cc1
  GIV-Gai inh = 103

# A portion of the library, so the mix of outcomes need not match the whole.
